Screening data (PubChem BioAssay)
FGF22 binding = binders of human FGF22 protein, primary screen, FGF22 synaptogenesis inhibitor project, biophysical, thermal shift, single point. recombinant FGF22 thermal shift, SYPRO orange fluorescence; percent of sucrose octasulfate shift, DMSO zero. calls only at 9.99 µM. AID 651658, 2012. Fibroblast growth factor 22 (Homo sapiens), Q9HCT0. 1.5% of 340,000 active;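 active = melting point raised past a set limit in the mean and every replicate; inconclusive = no clear call; three in four hits are not shown here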
Target sequence (Q9HCT0 whole entry, looked up): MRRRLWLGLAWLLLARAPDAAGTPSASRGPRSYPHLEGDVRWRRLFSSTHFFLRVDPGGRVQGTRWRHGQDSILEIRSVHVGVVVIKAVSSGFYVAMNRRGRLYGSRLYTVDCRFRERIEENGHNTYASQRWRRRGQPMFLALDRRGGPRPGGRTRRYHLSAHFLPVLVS
MLL AF4-AF9 inh = inhibitors of AF4 peptide binding to AF9, primary screen, biochemical, AlphaScreen, biotin-AF4 peptide, FLAG-AF9, single point | Protein AF-9 (Homo sapiens), P42568 | inhibition, % at 10 µM | 0.47% of 350,000 active | AID 651704, 2012;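 active = every replicate reaching a set inhibition limit, whatever the replicate mean, cut at about 25% in these data; inconclusive = mean inhibition reaches that limit but some replicates miss it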;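 also: 0% = plate neutral control median and 100% = total signal loss; the record names both 10 and 1 µM as test concentration; the first replicate is given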
Target sequence (P42568 whole entry, looked up): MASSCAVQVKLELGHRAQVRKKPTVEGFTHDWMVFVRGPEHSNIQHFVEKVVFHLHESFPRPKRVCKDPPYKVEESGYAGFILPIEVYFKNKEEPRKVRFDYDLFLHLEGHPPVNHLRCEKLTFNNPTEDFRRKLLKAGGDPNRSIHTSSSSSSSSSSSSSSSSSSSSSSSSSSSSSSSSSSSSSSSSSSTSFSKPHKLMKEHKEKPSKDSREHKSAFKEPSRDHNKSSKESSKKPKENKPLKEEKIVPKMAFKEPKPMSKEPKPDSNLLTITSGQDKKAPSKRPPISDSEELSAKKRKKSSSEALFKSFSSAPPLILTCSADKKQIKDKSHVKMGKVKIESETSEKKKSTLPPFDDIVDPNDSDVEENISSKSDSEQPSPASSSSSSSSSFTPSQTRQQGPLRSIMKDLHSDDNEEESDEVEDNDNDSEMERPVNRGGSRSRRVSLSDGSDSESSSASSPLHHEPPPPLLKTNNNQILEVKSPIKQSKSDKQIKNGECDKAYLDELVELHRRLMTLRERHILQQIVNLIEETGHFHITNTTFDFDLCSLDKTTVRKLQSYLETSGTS
Ecoli rRNA inh = reduced GFP signal of wild-type E. coli, primary screen, bacterial rRNA inhibitor project, GFP/RFP fluorescence, OD600, single point; E. coli WT GFP vs humanized-ribosome RFP mutants, 24 h; hits give low values; DMSO median 0, no signal -100; GFP signal change (wild-type ribosome), % (concentration not given with the values); 1.6% of 350,000 active; AID 720706, 2013;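 active = significant combined selectivity score with lowered wild-type GFP, culture density cut under 30%, mutant RFP and density less affected; inactive = any of these conditions unmet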; also: one replicate is shown; some compounds called inactive have numbers as strong as hits
Ecoli rRNA inh OD600 = second read-out of Ecoli rRNA inh, no call of its own (marks repeat the call); OD600 change, %; measured here: OD600 growth;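 optical density of the mix in the first replicate; 0 = DMSO median and -100 = no signal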
Ecoli rRNA inh RFP = also measured in Ecoli rRNA inh; calls as there; RFP signal change, %; measured here: RFP humanized mutant strains;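 first replicate; 0 = DMSO median and -100 = no signal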
* hit, by the source's call; i = inactive; ? = inconclusive; + = active, no number; & = joins results of further samples.

Values run as follows: FGF22 binding | MLL AF4-AF9 inh | Ecoli rRNA inh | Ecoli rRNA inh OD600 | Ecoli rRNA inh RFP
1. CCCNC(=O)Nc1ccc2c(c1)C(=O)N(C)C[C@H](OC)[C@H](C)CN(C(=O)C1CCC1)[C@@H](C)CO2
  i | -0.9 | 3 | 10 | -2.7
2. CN(CCc1ccccc1)C(=O)c1cccc(NC(=O)Cc2cccc(NC(=O)C3CCN(C(=O)c4ccccc4)CC3)c2)c1
  i | -1.0 | 5 | -12 | -1.5
3. N#C[C@@H]1[C@H](c2ccc(-c3cccc(F)c3)cc2)[C@H](CO)N1C(=O)NC1CCCC1
  i | -0.9 | -4 | -56 | -0.8
4. COc1ccc(NC(=O)Nc2ccc3c(c2)C(=O)N([C@H](C)CO)C[C@@H](C)[C@@H](CN(C)C(=O)Nc2ccc(C(F)(F)F)cc2)O3)cc1
  i | -10.0 | -8 | -5 | -2.3
5. CCCCNc1c(-c2ccccn2)nc2nc(C)cc(C)n12
  i | 13 | 13 | 13 | 0.5
6. CC1(c2ccccc2)NC(=O)N(CC(=O)Nc2cc(C(F)(F)F)ccc2N2CCCCC2)C1=O (configuration not stated)
  i | -30 | -6 | -23 | -0.8
7. COc1ccc2c3c([nH]c2c1)[C@@H](CO)N(Cc1ccccc1F)CC31CCN(C(=O)C2CCOCC2)CC1
  i | 0.0 | 5 | 2 | 0.4
8. CCNC(=O)C[C@@H]1C=C[C@H](NC(=O)C2CCC2)[C@H](CO)O1
  i | -3.3 | 1 | 1 | 0.2
9. C[C@@H]1CN([C@H](C)CO)C(=O)c2cc(C#Cc3cccc(F)c3)cnc2O[C@H]1CN(C)CC1CCOCC1
  i | 6.5 | 6 | 15 | 2.6
10. CCCC(=O)Nc1ccc2c(c1)C(=O)N(C)C[C@@H](OC)[C@@H](C)CN(Cc1cccc(F)c1)[C@@H](C)CO2
  i | 2.7 | -2 | -5 | 1.7
11. O=C(C[C@@H]1CC[C@@H]2[C@H](COC[C@@H](O)CN2C(=O)Nc2ccc(Cl)c(Cl)c2)O1)NC1CCC1
  i | 1.1 | -58 | -78 | -19
12. C[C@@H]1CN([C@@H](C)CO)C(=O)c2cccc(NC(=O)c3cnccn3)c2O[C@@H]1CN(C)C(=O)Nc1ccc(F)cc1
  i | -1.6 | -1 | 6 | -1.9
13. CC(=O)Nc1ccc(NC(=O)c2ccc3sc([C@H]4C[C@H](O)[C@@H](CO)O4)nc3c2)cc1
  i | -2.2 | 5 | 21 | 1.5
14. CCC(=O)N1CCCCN2[C@H](C1)[C@H](c1ccc(-c3ccc(F)cc3)cc1)[C@@H]2CO
  i | 5.2 | 4 | -8 | 3.4
15. N#C[C@H]1[C@H](c2ccc(C#CC3CCCCC3)cc2)[C@@H](CO)N1S(=O)(=O)c1ccccc1
  i | 0.7 | 0 | -1 | -1.9
16. O=C(C[C@@H]1CC[C@H]2[C@@H](COC[C@H](O)CN2S(=O)(=O)c2ccc(F)cc2)O1)N[C@H]1CCN(Cc2ccccc2)C1
  i | -0.6 | -3 | -2 | -2.5
17. CC(=O)OCC1OC(n2c(-c3ccc(Cl)cc3)ccc(C#N)c2=S)C(OC(C)=O)C(OC(C)=O)C1OC(C)=O (configuration not stated)
  i | -1.9 | 6 | 1 | 8.6
18. CN(C(=O)c1ccccc1OCc1ccc(F)cc1)c1c(N)n(Cc2ccccc2)c(=O)[nH]c1=O
  i | 2.3 | -1 | -1 | -1.4
19. C[C@@H]1CN([C@H](C)CO)C(=O)c2cc(Br)cnc2O[C@H]1CN(C)C(=O)CC1CC1
  i | 1.3&-5.8 | 5&1 | 4&1 | -3.3&-2.5
20. CC(=O)N1[C@@H]2Cn3c(ccc(-c4ccc(F)cc4)c3=O)[C@H]1[C@@H](C(=O)N(C)C)[C@@H]2CO
  i | -1.7 | 3 | -6 | -0.7
21. Cc1noc(C)c1NC(=O)Nc1cccc2c1O[C@@H](CN(C)C(=O)Nc1cccc3ccccc13)[C@H](C)CN([C@H](C)CO)C2=O
  i | 3.4 | 1 | -3 | 5.8
22. COc1ccc(NC(=O)N(C)C[C@@H]2OCCCC[C@@H](C)Oc3ccc(NC(=O)Nc4ccc5c(c4)OCO5)cc3C(=O)N([C@H](C)CO)C[C@@H]2C)cc1
  i | 2.4 | 5 | 2 | 1.5
23. CCc1nc2ccc(C(=O)NCCN3CCNC3=O)cn2c1N(CC)CCOC
  i | 1.3 | 4 | 14 | -3.8
24. C[C@@H]1CCCCO[C@H](CN(C)Cc2ccc(C(F)(F)F)cc2)[C@@H](C)CN([C@@H](C)CO)C(=O)c2cc(NS(=O)(=O)c3ccc(F)cc3)ccc2O1
  i | 0.1 | -3 | -17 | 6.8
25. C[C@H]1CN([C@@H](C)CO)C(=O)c2cccc(NC(=O)c3ccncc3)c2O[C@H]1CN(C)Cc1ccncc1
  i | -4.6 | -1 | 4 | -0.8
26. Cc1ccc(S(=O)(=O)N(C)C[C@H]2Oc3ccc(NC(=O)Cc4cn(C)c5ccccc45)cc3CC(=O)N([C@H](C)CO)C[C@H]2C)cc1
  i | 2.7 | 0 | 8 | 1.1
27. c1ccc2c(C(c3nnnn3-c3ccc4c(c3)OCCO4)N3CCCC3)ccnc2c1 (configuration not stated)
  i | 3.3 | 6 | 13 | 0.3
28. CC(=O)N1CCN(C(C(=O)Nc2c(C)cccc2C)c2ccccc2OC(F)(F)F)CC1 (configuration not stated)
  i | -0.6 | 12 | 9 | 2.4
29. CC(C)NC(=O)Nc1ccc2c(c1)C(=O)N([C@@H](C)CO)C[C@@H](C)[C@H](CN(C)S(=O)(=O)c1ccc(F)cc1)OCCCC[C@@H](C)O2
  i | -0.4 | -1 | -6 | -0.4
30. O=C(C[C@@H]1C[C@H]2c3cc(NS(=O)(=O)c4ccccc4)ccc3O[C@H]2[C@@H](CO)O1)N1CCCCC1
  i | -0.2 | -1 | -4 | 0.1
31. CC(C)C#Cc1ccc2c(c1)O[C@H](CN(C)S(C)(=O)=O)[C@@H](C)CN([C@H](C)CO)S2(=O)=O
  i | 0.8 | -8 | -8 | 0.3
32. COc1ccc2c3c([nH]c2c1)[C@H](CO)N(C(=O)c1cccc(F)c1)CC31CN(C(=O)c2ccccc2)C1
  i | -2.0 | -2 | 0 | 2.7
33. CCCNC(=O)C[C@H]1C[C@H]2c3cc(NC(=O)Nc4ccc(F)cc4)ccc3O[C@H]2[C@H](CO)O1
  i | 0.2 | 2 | 7 | -0.4
34. CC(C)NC(=O)Nc1ccc2c(c1)C(=O)N([C@@H](C)CO)C[C@@H](C)[C@H](CN(C)Cc1ccc(C(=O)O)cc1)OCCCC[C@H](C)O2
  + | -1.1 | 3 | 0 | -3.3
35. C[C@H](CO)N1C[C@H](C)[C@H](CN(C)C(=O)Nc2ccccc2)OCCCC[C@H](C)Oc2ccc(NC(=O)Nc3ccc4c(c3)OCO4)cc2C1=O
  i | ? | 2 | 4 | 2.8
36. Nc1[nH]c(C(=O)c2ccccc2)c(-c2ccccc2Br)c1C(=O)NCCc1ccc(Cl)cc1Cl
  i | -0.7 | -22 | -24 | 35
37. Cc1ccc(-c2ccc3c(c2)O[C@@H](CN(C)Cc2cccc(C(=O)O)c2)[C@@H](C)CN([C@@H](C)CO)S3(=O)=O)cc1
  i | 1.2 | -3 | -8 | -1.8
38. C[C@H]1CN([C@@H](C)CO)C(=O)c2cccc(NC(=O)C3CC3)c2O[C@@H]1CN(C)S(=O)(=O)c1ccc(F)cc1
  i | -1.9 | 0 | 2 | -3.6
39. C[C@@H]1CN([C@H](C)CO)C(=O)Cc2cc(NC(=O)CCCN(C)C)ccc2O[C@@H]1CN(C)Cc1ccc(Oc2ccccc2)cc1
  i | 5.7 | -57 | -77 | -17
40. COc1ccc(S(=O)(=O)N(C)C[C@@H]2Oc3ccc(NC(=O)CCCCCC(=O)Nc4ccccc4N)cc3C(=O)N([C@@H](C)CO)C[C@@H]2C)cc1
  i | -2.4 | -3 | -7 | 2.5
41. COc1ccc(S(=O)(=O)Nc2cccc3c2O[C@H](CN(C)Cc2ccncc2)[C@@H](C)CN([C@@H](C)CO)C3=O)cc1
  i | -0.4 | 1 | 3 | 0.2
42. O=C(C[C@@H]1C=C[C@@H](NC(=O)Nc2ccc(C(F)(F)F)cc2)[C@H](CO)O1)NCc1cccc(F)c1
  i | 0.0 | -1 | 7 | -4.7
43. CC(C)NC(=O)Nc1cccc2c1O[C@H](CN(C)Cc1ccncc1)[C@H](C)CN([C@@H](C)CO)C2=O
  i | 0.0 | 4 | 12 | 2.2
44. CC(C)Oc1cc(F)ccc1-c1cc(C(=O)Nc2cccc(Cl)c2)[nH]n1
  i | -0.5 | -18 | -58 | 15
45. COc1ccc(C(C)(NC(C)=O)c2nc(-c3ccccc3OC)cs2)cc1 (configuration not stated)
  i | -2.0 | -2 | 1 | 4.4
46. COCCn1c(=S)[nH]c2cc(C(=O)N3CCN(C4CCCCC4)CC3)ccc2c1=O
  i | -1.1 | 1 | 5 | -0.8
47. CCCS(=O)(=O)NC(=O)C1(C)CCN(C(=O)c2ccc(SC(F)(F)F)cc2)C1 (configuration not stated)
  i | -0.9 | 4 | 13 | 3.9
48. COC(=O)[C@]12C[C@H](CC(=O)NCCc3ccccc3OC)C(=O)N(Cc3ccccc3)C1=C[C@H](C(C)C)O[C@@H]2C1CC1
  i | 3.3 | 12 | 7 | 4.0
49. COc1ccc(S(=O)(=O)Nc2ccc3c(c2)CC(=O)N([C@@H](C)CO)C[C@@H](C)[C@H](CN(C)Cc2ccccc2)O3)cc1
  i | 8.6 | 1 | -38 | 28
50. COc1ccc(C2CC(=O)Oc3cc(C)c(Cl)cc32)cc1 (configuration not stated)
  i | -0.2 | -43 | -77 | -12
51. O=C(NCCC(=O)N1O[C@@H]2C=C[C@H]1C2)OCC1c2ccccc2-c2ccccc21
  i | -0.7 | 5 | 6 | 0.5
52. C[C@H](CO)N1C[C@H](C)[C@H](CN(C)S(=O)(=O)c2ccccc2)Oc2ccc(NC(=O)Nc3ccccc3)cc2CC1=O
  i | -7.2 | 4 | -11 | 2.1
53. COc1ccccc1S(=O)(=O)N(C)C[C@H]1OCc2cnnn2CCCC(=O)N([C@H](C)CO)C[C@@H]1C
  i | -1.2&-2.5 | 16&0 | 15&3 | 2.1&-4.0
54. C[C@@H]1CN([C@@H](C)CO)C(=O)c2cccc(NC(=O)Nc3ccc(C(F)(F)F)cc3)c2O[C@@H]1CN(C)S(=O)(=O)c1cn(C)cn1
  i | -3.1 | -2 | -10 | -0.2
55. CCC(=O)c1ccc(OCC(=O)OCC(=O)Nc2cccc(S(=O)(=O)N3CCOCC3)c2)cc1
  i | -2.1 | 7 | 7 | 0.0
56. Cc1ccc(S(=O)(=O)N(C)C[C@H]2OCCCC[C@H](C)Oc3ccc(NC(=O)NC4CCCCC4)cc3C(=O)N([C@@H](C)CO)C[C@@H]2C)cc1
  i | -2.5 | 1 | -6 | -2.2
57. CCCN1[C@H](C(=O)N[C@H](C)c2ccccc2)[C@@H](CO)[C@@H]2Cn3c(ccc(-c4ccccc4)c3=O)[C@@H]21
  i | 2.0 | -2 | -37 | 14
58. Fc1ccc(-c2ccc3c(n2)CCCN3Cc2ccccn2)cc1
  i | 13 | -3 | -7 | 5.4
59. COC(=O)c1ccc2nc(C3CCCCC3)c(CC(C)(C)C)n2c1
  i | -0.6 | 10 | 11 | -2.9
60. COc1cccc(-c2cn(CC[C@@H]3CC[C@H](NC(=O)CN(C)C)[C@H](CO)O3)nn2)c1
  i | -2.1 | 3 | 10 | -1.4
61. C[C@H]1CN([C@@H](C)CO)C(=O)c2cc(C#CCc3ccccc3)cnc2O[C@@H]1CN(C)Cc1ccccn1
  i | 1.9 | 0 | -1 | 1.3

Another view of part of the listing above:
2) CN(CCc1ccccc1)C(=O)c1cccc(NC(=O)Cc2cccc(NC(=O)C3CCN(C(=O)c4ccccc4)CC3)c2)c1
- FGF22 binding: i
- MLL AF4-AF9 inh: -1.0
- Ecoli rRNA inh: 5
- Ecoli rRNA inh OD600: -12
- Ecoli rRNA inh RFP: -1.5

3) N#C[C@@H]1[C@H](c2ccc(-c3cccc(F)c3)cc2)[C@H](CO)N1C(=O)NC1CCCC1
- FGF22 binding: i
- MLL AF4-AF9 inh: -0.9
- Ecoli rRNA inh: -4
- Ecoli rRNA inh OD600: -56
- Ecoli rRNA inh RFP: -0.8

4) COc1ccc(NC(=O)Nc2ccc3c(c2)C(=O)N([C@H](C)CO)C[C@@H](C)[C@@H](CN(C)C(=O)Nc2ccc(C(F)(F)F)cc2)O3)cc1
- FGF22 binding: i
- MLL AF4-AF9 inh: -10.0
- Ecoli rRNA inh: -8
- Ecoli rRNA inh OD600: -5
- Ecoli rRNA inh RFP: -2.3

5) CCCCNc1c(-c2ccccn2)nc2nc(C)cc(C)n12
- FGF22 binding: i
- MLL AF4-AF9 inh: 13
- Ecoli rRNA inh: 13
- Ecoli rRNA inh OD600: 13
- Ecoli rRNA inh RFP: 0.5

A portion of the library; the hit share may differ from the screen's.
